Assay outcomes as filed in PubChem.
Bfl-1 A1 inh – inhibitors of the anti-apoptotic protein A1, read as caspase activation; 0.066% of 330,000 active; caspase activation, % (concentration not given with the values); AID 2462; MEF A1-2A-BIM cells, Caspase-Glo 3/7 luminescence, 3 h; percent of clofoctol response, vehicle zero;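 active = over half of replicate activation scores above 10%, or exactly half above 10 with the replicate mean above 10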;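 also: wells of about 30 µL received 50 nL stock; many hits fall short of the cut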
Beta apoptosis – beta cell apoptosis inhibition; INS-1E cytokine-induced death, ATP luminescence, 48 h; percent of positive-control rescue, neutral wells zero; protection from apoptosis, % (test concentration not listed); AID 435005; 0.8% of 300,000 active;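 active = all replicates at 75% or more, or half of them and the mean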;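 also: 0% = cytokine-treated negative control wells and 100% = positive control rescue; higher means more ATP so stronger rescue from cytokine killing; wells of about 40 µL received 100 nL stock; the first replicate is given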
Ecoli rRNA inh – selective bacterial rRNA inhibition in E. coli. E. coli WT GFP vs humanized-ribosome RFP mutants, fluorescence, 24 h; stronger effect = lower value; DMSO median 0, no signal -100. 1.6% of 350,000 active. GFP signal change (wild-type ribosome), % (concentration not given with the values);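 active = significant combined selectivity score with lowered wild-type GFP, culture density cut under 30%, mutant RFP and density less affected; inactive = any of these conditions unmet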; also: one replicate is shown; some compounds called inactive have numbers as strong as hits
T cruzi repl – blocks replication of Trypanosoma cruzi | inhibition, % (test concentration not listed) | T. cruzi beta-gal in NIH3T3, luminescence, 90 h | 1.4% of 300,000 active;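 active = mean inhibition across valid replicates above about 55%, limit read from the data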;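 also: signal also drops with host cell toxicity which is not excluded here; 0% = plate median of DMSO wells and 100% = zero luminescence signal; higher percent means less beta-gal luminescence so fewer parasites; stock transfer was 50 nL into about 50 µL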
FGF22 binding – shifts melting point of recombinant human FGF22. Q9HCT0. recombinant FGF22 thermal shift, SYPRO orange fluorescence; percent of sucrose octasulfate shift, DMSO zero. calls only at 9.99 µM. 1.5% of 340,000 active;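 active = melting point raised past a set limit in the mean and every replicate; three in four hits are not shown here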
Target sequence (Q9HCT0 whole entry, looked up): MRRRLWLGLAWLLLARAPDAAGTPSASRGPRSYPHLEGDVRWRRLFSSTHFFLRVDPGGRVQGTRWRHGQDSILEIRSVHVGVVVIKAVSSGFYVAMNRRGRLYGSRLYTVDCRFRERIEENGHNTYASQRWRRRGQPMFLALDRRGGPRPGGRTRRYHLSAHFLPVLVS
UCH37 inh – inhibitors of human deubiquitinating enzyme UCH37; Q9Y5K5; 0.33% of 330,000 active; purified proteasome/UCH37, Ub-AMC cleavage fluorescence; inhibition, % (concentration not given with the values);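 active = mean of two replicates above 20%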;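 also: 0% = compound-free wells with enzyme and 100% = wells lacking proteasome; stock transfer was 100 nL into about 20 µL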
Target sequence (Q9Y5K5 whole entry, looked up): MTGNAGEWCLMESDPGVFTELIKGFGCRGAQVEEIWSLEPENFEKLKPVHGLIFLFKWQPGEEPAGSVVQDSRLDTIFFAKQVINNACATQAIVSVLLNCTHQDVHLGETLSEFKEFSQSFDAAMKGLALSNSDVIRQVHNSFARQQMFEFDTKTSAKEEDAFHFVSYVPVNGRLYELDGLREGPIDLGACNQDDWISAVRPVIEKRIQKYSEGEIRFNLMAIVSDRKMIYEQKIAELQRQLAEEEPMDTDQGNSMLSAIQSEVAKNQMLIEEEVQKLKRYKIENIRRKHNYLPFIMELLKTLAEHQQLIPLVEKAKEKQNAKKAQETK
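Material: human UCH37 enzyme supplied as purified proteasome complex / Amount: 0.15 nM proteasome as dispensed / Buffer or medium: pH 7.4 Tris-HCl (50 mM) with ovalbumin, ATP-MgCl2, DTT / Times: preincubation 30 min, reaction 25 min, room temperature / Technique: AMC fluorescence from Ub-AMC cleavage, excitation 355 nm, emission 460 nm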
MLL AF4-AF9 inh – blocks AF4 peptide binding to human AF9; AlphaScreen, biotin-AF4 peptide binding to FLAG-AF9; inhibition, % at 10 µM; 0.47% of 350,000 active; AID 651704;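 active = every replicate reaching a set inhibition limit, whatever the replicate mean, cut at about 25% in these data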;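 also: 0% = plate neutral control median and 100% = total signal loss; the record names both 10 and 1 µM as test concentration; the first replicate is given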
Target sequence (P42568 whole entry, looked up): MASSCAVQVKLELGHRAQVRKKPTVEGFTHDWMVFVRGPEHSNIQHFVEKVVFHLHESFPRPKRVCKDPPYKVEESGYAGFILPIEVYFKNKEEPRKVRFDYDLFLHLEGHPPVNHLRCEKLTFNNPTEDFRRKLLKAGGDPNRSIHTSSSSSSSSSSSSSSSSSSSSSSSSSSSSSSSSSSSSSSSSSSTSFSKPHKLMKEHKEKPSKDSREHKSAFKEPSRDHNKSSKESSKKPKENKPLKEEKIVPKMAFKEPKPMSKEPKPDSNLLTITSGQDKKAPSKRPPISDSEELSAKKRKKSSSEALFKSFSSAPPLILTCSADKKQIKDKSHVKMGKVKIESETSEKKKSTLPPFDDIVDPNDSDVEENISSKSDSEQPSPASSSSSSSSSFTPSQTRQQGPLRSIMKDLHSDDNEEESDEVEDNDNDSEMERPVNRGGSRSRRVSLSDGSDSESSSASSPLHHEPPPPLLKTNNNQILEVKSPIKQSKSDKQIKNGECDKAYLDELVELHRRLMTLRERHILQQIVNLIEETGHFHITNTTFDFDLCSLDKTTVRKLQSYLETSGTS
Ecoli growth – blocks Escherichia coli growth | AID 1053175 | OD600, 23 h; stronger effect = lower value | 0.21% of 330,000 active | OD600 absorbance (no concentration beside the values);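 active = OD600 absorbance below the run mean of sample wells minus 3.6 SD, in any replicate, cut at about 0.56 in these data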;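 also: stock transfer was 300 nL into about 60 µL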
Ecoli rRNA inh OD600 – recorded beside Ecoli rRNA inh, whose call it bears; OD600 change, %; measured here: OD600 growth;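 optical density of the mix in the first replicate; 0 = DMSO median and -100 = no signal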
Ecoli rRNA inh RFP – further read-out of Ecoli rRNA inh, marked with its call; RFP signal change, %; measured here: RFP humanized mutant strains;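 first replicate; 0 = DMSO median and -100 = no signal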
Starred values were filed as active, the others as inactive. A portion of the library; count on the stated rates, not on these rows.

For CN(C)C(=O)CCc1ccc2c3c([nH]c2c1)[C@]1(C)[C@@H](C(=O)N2CCOCC2)C[C@H](CC(=O)NCCN2CCOCC2)C(=O)N1CC3 the results were Ecoli rRNA inh 15, FGF22 binding inactive, UCH37 inh 5.1, MLL AF4-AF9 inh 0.8, Ecoli growth 0.7, Ecoli rRNA inh OD600 12 and Ecoli rRNA inh RFP -0.7.
`CC(=O)c1c(C)[nH]c(C(=O)Nc2cccc3ccccc23)c1C` gave Bfl-1 A1 inh -0.5, Beta apoptosis -7, Ecoli rRNA inh 4, T cruzi repl -13, FGF22 binding inactive, UCH37 inh 2.8, MLL AF4-AF9 inh 0.4, Ecoli growth 0.71, Ecoli rRNA inh OD600 3 and Ecoli rRNA inh RFP -0.7.
`CN1C(=O)/C(=C/c2cc3c(cc2Br)OCO3)NC1=S` gave Bfl-1 A1 inh -0.1, Beta apoptosis 1, Ecoli rRNA inh -1, T cruzi repl 14, FGF22 binding inactive, UCH37 inh 0.8, MLL AF4-AF9 inh -0.3, Ecoli growth 0.71, Ecoli rRNA inh OD600 -4 and Ecoli rRNA inh RFP 2.4.
For S=C1N(c2ccccc2)CN(CCN2CCOCC2)CN1c1ccccc1 the results were Bfl-1 A1 inh 1.0, Beta apoptosis -2, Ecoli rRNA inh 23, T cruzi repl -6, FGF22 binding inactive, UCH37 inh 0.8, Ecoli growth 0.68, Ecoli rRNA inh OD600 10 and Ecoli rRNA inh RFP 1.4.
Fc1ccccc1Nc1nc(Cl)nc(Cl)n1 was read as Bfl-1 A1 inh 0.2, Beta apoptosis -9, Ecoli rRNA inh 22, T cruzi repl -6, FGF22 binding inactive, UCH37 inh 4.0, MLL AF4-AF9 inh 1.7, Ecoli growth 0.74, Ecoli rRNA inh OD600 16 and Ecoli rRNA inh RFP 4.4.
O=c1c(Cl)c(Cl)cnn1Cc1nnc(-c2ccccc2Br)o1 was read as Ecoli rRNA inh -49, T cruzi repl 57*, UCH37 inh 6.2, MLL AF4-AF9 inh -2.3, Ecoli growth 0.71, Ecoli rRNA inh OD600 -61 and Ecoli rRNA inh RFP -12.
CCS(=O)(=O)c1ccc2c(c1)N(S(C)(=O)=O)CC(C(=O)NC1CC1)O2 (centres undefined) was read as Bfl-1 A1 inh 0.8, Beta apoptosis -4, T cruzi repl -6, UCH37 inh 4.0 and Ecoli growth 0.71.
Screening COC(=O)c1ccc(NC(=S)NC2CCc3ccccc32)cc1 (centres undefined) returned Bfl-1 A1 inh 0.6, Beta apoptosis 3, T cruzi repl 0, UCH37 inh 1.4 and Ecoli growth 0.67.
Screening CCOC(=O)c1sc2nc(-c3cccnc3)ccc2c1N returned Bfl-1 A1 inh -1.0, Beta apoptosis 2, Ecoli rRNA inh -1, T cruzi repl 6, FGF22 binding inactive, UCH37 inh -15, MLL AF4-AF9 inh -7.3, Ecoli growth 0.71, Ecoli rRNA inh OD600 2 and Ecoli rRNA inh RFP -1.1.
Screening Cc1nc(-c2ccccc2)sc1C(N)=O returned Bfl-1 A1 inh 1.8, Beta apoptosis -4, T cruzi repl 1, UCH37 inh 5.0 and Ecoli growth 0.7.

Two records picked at random from the list so far, as already listed:
O=c1c(Cl)c(Cl)cnn1Cc1nnc(-c2ccccc2Br)o1 was read as Ecoli rRNA inh -49, T cruzi repl 57*, UCH37 inh 6.2, MLL AF4-AF9 inh -2.3, Ecoli growth 0.71, Ecoli rRNA inh OD600 -61 and Ecoli rRNA inh RFP -12.
CCS(=O)(=O)c1ccc2c(c1)N(S(C)(=O)=O)CC(C(=O)NC1CC1)O2 (centres undefined) was read as Bfl-1 A1 inh 0.8, Beta apoptosis -4, T cruzi repl -6, UCH37 inh 4.0 and Ecoli growth 0.71.

Next entries:
For Cn1cccc1Cc1nnc(SCC(=O)N2CCOCC2)n1-c1ccc(F)cc1 the results were Bfl-1 A1 inh 1.0, Beta apoptosis -2, Ecoli rRNA inh 8, T cruzi repl 4, FGF22 binding inactive, UCH37 inh 3.6, MLL AF4-AF9 inh -0.8, Ecoli growth 0.71, Ecoli rRNA inh OD600 9 and Ecoli rRNA inh RFP 3.8.
CCOC(=O)N1CCN(C(=O)C2CCCN(c3ncnc4c3sc3cccc(F)c34)C2)CC1 (centres undefined) was read as Ecoli rRNA inh -15, FGF22 binding inactive, UCH37 inh -0.7, MLL AF4-AF9 inh 4.9, Ecoli growth 0.71, Ecoli rRNA inh OD600 -20 and Ecoli rRNA inh RFP 8.0.
Screening O=C(NCC1COc2ccccc2O1)Nc1ccccc1F (centres undefined) returned Bfl-1 A1 inh 0.5, Beta apoptosis 1, T cruzi repl -1, UCH37 inh 5.1 and Ecoli growth 0.67.
For CN(C(=O)c1ccccc1NC(=O)C(F)(F)F)c1ccccc1 the results were Bfl-1 A1 inh 0.0, Beta apoptosis -4, T cruzi repl -8, UCH37 inh 2.3 and Ecoli growth 0.71.
`C/C(=N/NC(=O)CNC(=O)c1cccnc1)c1ccc(Cl)c(Cl)c1` gave Bfl-1 A1 inh -1.2, Beta apoptosis -4, Ecoli rRNA inh -4, T cruzi repl -4, FGF22 binding inactive, MLL AF4-AF9 inh -2.6, Ecoli rRNA inh OD600 5 and Ecoli rRNA inh RFP -1.4.
For CSc1nsc(SC)c1NC(=O)Nc1ccccc1C the results were Bfl-1 A1 inh 0.4, Beta apoptosis 1, Ecoli rRNA inh 25, T cruzi repl 4, UCH37 inh 2.4, MLL AF4-AF9 inh -1.3, Ecoli growth 0.71, Ecoli rRNA inh OD600 17 and Ecoli rRNA inh RFP -1.5.
For CCCN1CCn2c3c(c4cc(Br)ccc42)CCCC31 (centres undefined) the results were Ecoli rRNA inh -33, T cruzi repl 16, UCH37 inh 4.9, MLL AF4-AF9 inh 14, Ecoli growth 0.66, Ecoli rRNA inh OD600 -63 and Ecoli rRNA inh RFP -6.4.
For O=C(N/N=C/c1cccnc1)c1cccc(Cl)c1 the results were Bfl-1 A1 inh -1.2, Beta apoptosis 6, Ecoli rRNA inh 18, T cruzi repl -11, FGF22 binding inactive, MLL AF4-AF9 inh -0.7, Ecoli rRNA inh OD600 10 and Ecoli rRNA inh RFP -0.7.
CN1CCCN(Cc2ccccc2C(F)(F)F)CC1 was read as Bfl-1 A1 inh -0.2, Beta apoptosis 0, T cruzi repl 18, UCH37 inh 5.2 and Ecoli growth 0.66.
Cc1snc(S(=O)(=O)Cc2ccccc2Cl)c1C#N was read as Bfl-1 A1 inh 0.3, Beta apoptosis -10, T cruzi repl -5, UCH37 inh 1.2 and Ecoli growth 0.7.
`Cc1ccc(C(=O)N/C(=C\c2cccs2)c2nc3ccccc3[nH]2)cc1` gave Bfl-1 A1 inh -0.2, Beta apoptosis -3, Ecoli rRNA inh -50, T cruzi repl -9, FGF22 binding inactive, UCH37 inh -59, MLL AF4-AF9 inh -2.3, Ecoli growth 0.67, Ecoli rRNA inh OD600 -79 and Ecoli rRNA inh RFP -12.
Screening COc1ccc2c(c1)CCc1c-2n[nH]c1C(=O)O returned Bfl-1 A1 inh 0.0, Beta apoptosis 0, UCH37 inh 2.5 and Ecoli growth 0.72.
CCCOc1ccc(N2C(=O)CC(N3CCN(CCN=CC4=C(O)CC(C)(C)CC4=O)CC3)C2=O)cc1 (centres undefined) was read as Bfl-1 A1 inh -0.1, Beta apoptosis 1, Ecoli rRNA inh 5, T cruzi repl -16, FGF22 binding inactive, UCH37 inh 0.6, MLL AF4-AF9 inh 1.3, Ecoli growth 0.71, Ecoli rRNA inh OD600 3 and Ecoli rRNA inh RFP -6.7.
`COC(=O)CN(c1ccc(OC)c(OC)c1)S(C)(=O)=O` gave Bfl-1 A1 inh 3.2, Beta apoptosis -1, T cruzi repl -8, UCH37 inh 0.1 and Ecoli growth 0.72.
Screening Cc1cc(C)n(/C(=C\N(C)C)C(=O)c2cccc([N+](=O)[O-])c2)n1 returned Bfl-1 A1 inh 0.9, Beta apoptosis -1, Ecoli rRNA inh 3, T cruzi repl 2, FGF22 binding inactive, UCH37 inh 8.5, MLL AF4-AF9 inh 51*, Ecoli growth 0.64, Ecoli rRNA inh OD600 9 and Ecoli rRNA inh RFP 0.1.
For COc1ccc2sc(/C=C/c3ccccc3O)[n+](C)c2c1 the results were Ecoli rRNA inh -24, UCH37 inh 14, MLL AF4-AF9 inh 11, Ecoli growth 0.61, Ecoli rRNA inh OD600 -36 and Ecoli rRNA inh RFP 63.
`Cc1ccc(OCCNc2ccc(S(=O)(=O)N3CCCC3)cn2)cc1` gave Ecoli rRNA inh -6, FGF22 binding inactive, UCH37 inh 3.6, MLL AF4-AF9 inh -5.9, Ecoli growth 0.61, Ecoli rRNA inh OD600 -23 and Ecoli rRNA inh RFP 0.8.
Screening Cc1nn(-c2ncccn2)c2c1C(=O)CC(C)(C)C2Br (centres undefined) returned FGF22 binding inactive, UCH37 inh -1.5, MLL AF4-AF9 inh -4.5 and Ecoli growth 0.68.
`CCCN1CCN(C(=O)CCS(=O)(=O)c2cc3c(cc2Cl)NC(=O)CO3)CC1` gave Bfl-1 A1 inh -0.2, Beta apoptosis 8, Ecoli rRNA inh 2, T cruzi repl -4, FGF22 binding inactive, UCH37 inh -0.3, MLL AF4-AF9 inh -8.7, Ecoli growth 0.71, Ecoli rRNA inh OD600 1 and Ecoli rRNA inh RFP -7.5.
For N#C/C(=C\c1ccc(N2CCOCC2)o1)C(=O)Nc1ccc(O)cc1 the results were Bfl-1 A1 inh -0.4, Beta apoptosis 5, Ecoli rRNA inh -9, T cruzi repl -22, FGF22 binding inactive, UCH37 inh 29*, MLL AF4-AF9 inh -0.6, Ecoli growth 0.64, Ecoli rRNA inh OD600 -25 and Ecoli rRNA inh RFP -1.0.
For O=C(NNc1c2ccccc2nc2ccccc12)c1ccccc1O the results were Bfl-1 A1 inh -1.0, Beta apoptosis 12, Ecoli rRNA inh -4, T cruzi repl 30, FGF22 binding inactive, UCH37 inh -3.7, MLL AF4-AF9 inh 1.2, Ecoli growth 0.63, Ecoli rRNA inh OD600 2 and Ecoli rRNA inh RFP -2.0.
`COc1ccc(OCc2nnc(SCC(=O)N3CCCC3)o2)cc1` gave Bfl-1 A1 inh -0.3, Beta apoptosis -5, Ecoli rRNA inh 4, T cruzi repl 29, FGF22 binding inactive, UCH37 inh 2.0, MLL AF4-AF9 inh -1.6, Ecoli growth 0.68, Ecoli rRNA inh OD600 11 and Ecoli rRNA inh RFP -0.2.
O=C(NC(=S)N1CCc2ccccc21)c1ccco1 was read as Bfl-1 A1 inh -0.4, Beta apoptosis -3, Ecoli rRNA inh -4, T cruzi repl -21, FGF22 binding inactive, UCH37 inh 6.6, MLL AF4-AF9 inh -2.7, Ecoli growth 0.65, Ecoli rRNA inh OD600 -14 and Ecoli rRNA inh RFP -2.6.
Cc1ccc(C)c(NS(=O)(=O)c2c(C)[nH]c(C)c2C(=O)N2CCCCC2)c1 was read as Bfl-1 A1 inh -0.6, Beta apoptosis -5, Ecoli rRNA inh 11, T cruzi repl 10, FGF22 binding inactive, UCH37 inh 2.6, MLL AF4-AF9 inh 4.9, Ecoli growth 0.69, Ecoli rRNA inh OD600 0 and Ecoli rRNA inh RFP 0.6.
CCSc1nc2c(c(=O)[nH]c(=O)n2C)n1CC(O)COc1ccccc1C (centres undefined) was read as Bfl-1 A1 inh -0.5, Beta apoptosis 1, T cruzi repl 5, UCH37 inh 4.3 and Ecoli growth 0.71.
